LASV entry inh – Lassa virus entry inhibition; Lassa virus pseudotype entry inhibition, cell reporter; control for the full effect not named in the record; Potency, µM (doses to about 37.9 µM), for the others: top-dose activity change, negative = inhibition, actives largely listed as inhibitors; 300,000 compounds, 1.2% hits; AID 540256; active means well fitted inhibition curve with a large enough effect; inconclusive means small, poorly fitted or top-dose-only effect, or effect the other way; inactive means flat fitted curve, though single readings scatter; tested in HEK293 cells; further: on the % scale 0 is the no-effect control and ±100 the full control effect; nearly all actives have a fitted effect of over 50% in size; luciferase read-out
Cruzain Triton – blocks cruzain activity in presence of Triton detergent | P25779 | purified cruzain, Z-FR-AMC fluorescence, 0.01% Triton | Potency, µM, without a hit: max response, negative = inhibition, usual class: inhibitors | 200,000 compounds, 0.43% hits | AID 1478;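 further: plate controls were neutral wells for no effect and buffer without enzyme for full effect; nearly all actives have a fitted effect of over 40% in size; top concentration of the series not given in the record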
Target sequence (P25779 123-467 limits assumed): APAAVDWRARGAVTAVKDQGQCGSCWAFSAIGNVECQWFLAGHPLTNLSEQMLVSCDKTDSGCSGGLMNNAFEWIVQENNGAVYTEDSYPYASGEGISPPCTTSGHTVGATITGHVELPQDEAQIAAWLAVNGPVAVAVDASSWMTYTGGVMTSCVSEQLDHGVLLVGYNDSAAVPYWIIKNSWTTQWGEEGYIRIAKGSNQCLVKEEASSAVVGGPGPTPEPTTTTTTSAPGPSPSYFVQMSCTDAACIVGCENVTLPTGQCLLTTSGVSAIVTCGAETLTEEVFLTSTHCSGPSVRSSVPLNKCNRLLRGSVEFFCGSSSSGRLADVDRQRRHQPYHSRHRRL
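Cruzain (1.5 nM) preincubated 15 min at RT with compound in 100 mM sodium acetate pH 5.5, 5 mM DTT, 0.01% Triton X-100. Reaction started with 2 uM Z-FR-AMC; AMC fluorescence (ex 360/em 450 nm) change over 60 s gave rate.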
Marburg entry inh – blocks Marburg virus binding to or entry into cells; Marburg virus pseudotyped entry inhibition, cell reporter; control for the full effect not named in the record; about a third of the inactives were read at about 46 µM; Potency, µM (highest dose often 37.8 µM), for the others: at the top dose activity change, negative = inhibition, usual class: inhibitors; 300,000 compounds, 1.8% hits; AID 540276; active = well fitted inhibition curve with a large enough effect; inconclusive = small, poorly fitted or top-dose-only effect, or effect the other way; inactive = flat fitted curve, though single readings scatter; tested in HEK293 cells; about a fifth of its hits are not listed in these tables; further: on the % scale 0 is the no-effect control and ±100 the full control effect; luciferase read-out
Cruzain noTriton – cruzain (T. cruzi) inhibition without detergent; P25779; purified cruzain, Z-FR-AMC fluorescence, no detergent; Potency, µM, inactives show max response, negative = inhibition, actives largely listed as inhibitors; 200,000 compounds, 2.3% hits;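 further: plate controls were enzyme without inhibitor for no effect and buffer without enzyme for full effect; nearly all actives have a fitted effect of over 40% in size; top concentration of the series not given in the record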
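Purified cruzain at 1.5 nM, pre-incubated 15 min with compound at room temperature in 100 mM sodium acetate pH 5.5, 5 mM DTT, 0.00005% Triton X-100. Reaction started with 2 uM Z-FR-AMC; AMC fluorescence increase over 60 s gives rate.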
NS1 inh – blocks influenza NS1 protein function; Potency, µM (top dose mostly 46.1 µM), without a hit: top-dose activity, positive = more growth; 270,000 compounds, 0.4% hits; S. cerevisiae slowed by influenza A NS1, growth recovery by OD600; active means well fitted rising curve with a large enough effect; inconclusive means small, poorly fitted or top-dose-only effect; inactive means no such curve, though single readings can be large or run the other way; further: nearly all actives have a fitted effect of over 50% in size
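Growth recovery, yeast-based: influenza A NS1 expressed in S. cerevisiae causes slow growth, and suppressors are detected by OD600. The parent strain without NS1 is used as positive control.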
StopGo reporter – FMDV 2A StopGo reporter, luciferase signal; human cells with a luciferase reporter of 2A StopGo recoding; control for the full effect not named in the record; Potency, µM (titrated, usually from 57.9 µM), without a hit: at the top dose signal change, negative = less light; 410,000 compounds, 1.2% hits; AID 1159524; active = well fitted falling curve with a large enough effect; inconclusive = small, poorly fitted or top-dose-only effect; inactive = no such curve, though single readings can be large or run the other way; tested in HEK293T cells; further: on the % scale 0 is the no-effect control and ±100 the full control effect; nearly all actives have a fitted effect of over 45% in size; luciferase light after 4 h
RE007 growth inh – less growth of the S. pombe RE007 Vpr strain; S. pombe RE007 Vpr strain, BacTiter-Glo ATP luminescence, 24 h; control for the full effect not named in the record; 360,000 compounds, 0.21% hits; Potency, µM (highest dose often 92.2 µM), inactives show at the top dose activity change, negative = less growth; AID 651644; active = well fitted falling curve with a large enough effect; inconclusive = small, poorly fitted or top-dose-only effect; inactive = no such curve, though single readings can be large or run the other way;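 further: on the % scale 0 is the no-effect control and ±100 the full control effect; nearly all actives have a fitted effect of over 50% in size; the assay follows cell death caused by Vpr and the record does not say whether a fall means rescue or toxicity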
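Fission yeast strain RE007, carrying one chromosomally integrated HIV-1 vpr copy, was seeded at OD 0.01 in PMG+AL medium with 23 nL pinned compound. After 24 h at 30 °C and 99% humidity, viability was read by BacTiter-Glo luminescence.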
SARS PLP yeast – blocks SARS-CoV papain-like protease in a yeast assay; AID 485353; S. cerevisiae expressing SARS-CoV PLpro, growth rescue; control for the full effect not named in the record; Potency, µM (doses to about 32.9 µM), without a hit: at the top dose activity, positive = growth rescue; 330,000 compounds, 0.19% hits; active means well fitted rising curve with a large enough effect; inconclusive means small, poorly fitted or top-dose-only effect; inactive means no such curve, though single readings can be large or run the other way; further: 0% is about no effect; nearly all actives have a fitted effect of over 55% in size; growth read by luminescence after 48 h
Numbers without * were called inactive; ? = inconclusive; · = no result given; & = joins results of further samples; [ ] = remark or other dose. Unless noted, the call rests on the fitted dose curve; in most records, active means well fitted curve in the direction sought with a large enough effect; inconclusive means small, poorly fitted or top-dose-only effect, or another doubt; inactive means no such curve, though single readings can be large; an effect the other way counts as inactive or inconclusive. Potency means the concentration at half of the fitted maximal effect.

Molecule | LASV entry inh | Cruzain Triton | Marburg entry inh | Cruzain noTriton | NS1 inh | StopGo reporter | RE007 growth inh | SARS PLP yeast
Cc1c(C(=O)OCC(=O)N2CC(C)OC(C)C2)oc2ccc(Br)cc12 (centres undefined) | -2% | -1.3% | -1% | ? | 0.45µM* | ? | -9% | -7%
O=C(CSc1nc2c(cnn2-c2ccccc2)c(=O)[nH]1)NC1CCS(=O)(=O)C1 (centres undefined) | · | · | · | · | 9% | 13% | -8% | 1%
N#CC1=C(N)N(c2ccccc2)C2=C(C(=O)CCC2)C1c1ccsc1 (centres undefined) | 5% | -0.9% | ? | -2% | 11% | 16% | 18% | -8%
O=C1COc2cc(S(=O)(=O)NCc3ccco3)c(Cl)cc2N1 | 10%[46.1 µM] | -4.0% | · | 5% | · | -12% | · | 1%
COC(=O)c1nonc1NCn1nnc2ccccc21 | 1% | 1.3% | 0% | -4% | ? | -1% | 12% | 0%
Cn1ccsc1=NC(=O)c1cccc(C#N)c1 | 6%[46.1 µM] | · | -10%[46.1 µM] | · | -17% | 7% | -9% | -5%
CC(=O)C1=C(C)OC(N)=C(C#N)C1c1ccncc1 (centres undefined) | -8% | 0.5% | 3% | ? | 9% | 0% | -1% | 3%
CN(C(=S)Nc1cccnc1)c1ccc(O)cc1 | -10% | -4.8% | -11% | 6% | -3% | -24% | -16% | -14%
N#C/C(=C\c1ccc(-c2ccccc2C(=O)O)o1)c1nc2ccccc2[nH]1 | 18%&0%[46.1 µM] | -0.7% | 10%[46.1 µM] | -1% | 3% | ? | -9% | -5%
CC(C)(C)C1CCC(OC(=O)C[N+]2(C)CCCCC2)CC1 (centres undefined) | -4%[46.1 µM] | · | 18%[46.1 µM] | · | · | -22% | -13% | 0%
CCc1ccc(NC(=O)CC2C(=O)N(c3cccc(C)c3)C(=O)N2Cc2ccc(F)cc2)cc1 (centres undefined) | -2%[46.1 µM] | -8.0% | · | -8% | · | 0% | · | ·
CC(C)CCNC(=O)c1ccc(OC2CCN(S(=O)(=O)N(C)C)CC2)cc1 | 4% | · | 22%[14.2 µM] | · | -4% | 3% | -1% | -1%
CCOc1ccc(Br)cc1S(=O)(=O)Nc1ccc(C(=O)OCC(=O)Nc2ccc(C#N)cc2)cc1 | · | · | · | · | 10% | 47%[activator] | 0% | 0%
COC(=O)c1ccccc1NC(=O)[C@H]1O[C@@H]2OC(C)(C)O[C@@H]2[C@H]2OC(C)(C)O[C@H]21 | ? | -5.9% | 22%[46.1 µM] | 13% | · | 7% | · | ·
CCC(NS(=O)(=O)c1ccc(OC)cc1)C(=O)NCCc1ccccc1 (centres undefined) | -29%[46.1 µM] | · | ? | · | -5% | 19% | 4% | 1%
NC(=O)C(CCC(=O)c1ccc(Br)cc1)S(=O)(=O)c1ccccc1 (centres undefined) | 0% | · | 1% | · | · | -11% | -6% | 0%
CC(=O)Nc1ccc2nc(CN3CCN(CC(C)C)C(CCO)C3)ccc2c1 (centres undefined) | 5% | · | -16%[46.1 µM] | · | 6% | 17% | 11% | -1%
Cc1cccc(NS(=O)(=O)c2cc(C(=O)OCC(=O)Nc3cc(C)on3)ccc2C)c1 | ? | 0.3% | ? | -10% | -4% | 33%[activator] | -11% | -4%
CC1CCCCN1C(=O)CSc1nc2ccccc2nc1Cc1ccccc1 (centres undefined) | ? | -1.6% | · | 0% | · | -20% | · | ·
O=C(c1ccc2c(c1)OCO2)N1CCN(S(=O)(=O)N2CCCCC2)CC1 | -22% | · | -3%[46.1 µM] | · | 8% | 0% | 13% | 0%
O=C(N/N=C/C(Cl)=C/c1ccccc1)c1cnccn1 | 14% | -12% | 1% | -17% | -6% | 26% | -28% | -4%
O=S(=O)(c1ccc(F)cc1)N1CCCC1c1cccnc1 (centres undefined) | · | · | · | · | 1% | -13% | 4% | -1%
COc1ccc(-c2c([C@H]3[C@@H]4C=CCC[C@@]4(C)C(=O)N3Cc3ccccc3)ccc3ccccc23)cc1OC | · | · | · | · | 2% | ? | 3% | -11%
COC(=O)c1ccccc1NC(=O)CC#N | 5% | -2.4% | -6% | -6% | ? | -20% | 4% | 18%
CCc1cccc(C)c1NC(=O)CN1C(=O)c2ccccc2Sc2ncccc21 | 1%[46.1 µM] | -2.6% | · | ? | · | -21% | · | ·
c1ccc(CNc2nnnn2-c2ccccc2)cc1 | -13% | -1.6% | 17% | -6% | 3% | 20% | -3% | -11%
CCn1ccc(-c2ccccc2)c(C#N)c1=O | 2%[46.1 µM] | · | ? | · | -4% | 15% | 6% | 0%
Cc1cc2nc3c(=O)[nH]c(=O)[nH]c3nc2c([N+](=O)[O-])c1N | 20% | · | -24%[46.1 µM] | · | · | -11% | -15% | -1%
Cc1ccc2nc3c(cc(C(=O)NCCc4ccccc4)c(=N)n3CCCN3CCOCC3)c(=O)n2c1 | · | · | ? | · | -1% | 3% | 1% | -1%
O=C(c1ccc([N+](=O)[O-])cc1)N1CCCC1 | · | · | · | · | 0% | -8% | -15% | -1%
CCOC(=O)N1CCc2c(sc(NCc3cccc(F)c3)c2C(=O)Nc2ccc(OC)cc2)C1 | ? | -3.0% | · | ? | · | -5% | · | ·
C=CCNS(=O)(=O)c1ccc2c(c1)n(C)c(=O)n2C | ? | · | -5%[46.1 µM] | · | · | 15% | 1% | -5%
COc1cc2c(cc1OC)C(c1ccc(Br)cc1)CC(=O)N2 (centres undefined) | · | · | · | · | -4% | -17% | 0% | 6%
Cc1oc(-c2ccc(Cl)cc2)nc1CN1CCCC(C(=O)NCCCN2CCCC2=O)C1 (centres undefined) | · | 2.0% | -3% | 5% | -4% | ? | -3% | 3%
CCOc1ccc(CNS(=O)(=O)c2cc3c(cc2C)NC(=O)CO3)cc1 | -10%[46.1 µM] | 2.4% | · | -3% | · | 15% | · | ·
CCOC(=O)N1CCN(S(=O)(=O)N2CCCC(C(=O)NCCc3ccc(OC)c(OC)c3)C2)CC1 (centres undefined) | · | · | · | · | -8% | -29% | 7% | 6%
COc1cccc(C(=O)Nc2ccc(NC(=O)C3CC3)cn2)c1 | ? | -0.6% | ? | 2% | -10% | 44%[activator] | 4% | -2%
CCCCC12CN3CC(C)(CN(C1)C3c1cc(Br)ccc1O)C2=O (centres undefined) | 12%[46.1 µM] | -3.3% | -27%[46.1 µM] | 1% | · | -25% | · | ·
CCNc1nc(NCC)n2c(SCC(=O)Nc3ccc(NC(C)=O)cc3)nnc2n1 | 12% | · | 1% | · | · | 1% | -16% | 9%
CCCCOc1ccc(NC2=NC3(CCCCC3)N=C(N)N2)cc1 | -8% | -0.1% | -15%&-15% | 6% | -2%&11% | -13% | 31% | 3%
COc1ccc(C2NC(=O)c3sc4nc(C)c(C(C)=O)c(-c5ccc(Cl)cc5)c4c3N2)cc1 (centres undefined) | -5% | 0.9% | -9% | -6% | 9% | -27% | 7% | 1%
CC(C)(C)c1ccc(OCCC(=O)NCC(c2cccs2)N2CCOCC2)cc1 (centres undefined) | -5% | · | -14% | · | · | ? | -7% | 6%
CCN(CC(=O)Nc1ccc(NC(C)=O)cc1)C(=O)Cc1coc2cc(C)c(C)cc12 | -11% | · | 0%[46.1 µM] | · | · | -10% | 2% | 1%
O=C(Nc1ccc(F)cc1)c1cnc(-c2ccccc2)nc1-c1ccccc1 | -29% | 4.5% | 19% | ? | 14% | -18% | -18% | 1%
COc1ccc(C2=CC3=C(Br)C(=O)C(C)(OC(=O)C4CCCC4)C(=O)C3=CO2)cc1 (centres undefined) | · | 2.8% | · | -5% | -77% | -7% | ? | -15%
Cn1c(SCC(=O)NCc2ccco2)nnc1C1CCCC1 | 3%[46.1 µM] | · | 18%[46.1 µM] | · | 14% | -11% | -10% | -4%
CCN1C=C(Cc2ccc(OC)cc2)C2=C(C1)C(c1ccc(OC)cc1)C(C#N)=C(N)O2 (centres undefined) | ? | -7.8% | ? | -10% | 14% | ? | -10% | 0%
CCCCc1nn2c(=O)cc(COC(=O)c3cccc(Cl)c3)nc2s1 | -7%[46.1 µM] | -1.5% | · | 9% | · | -10% | · | ·
CN(C)/C=N/c1sc2c(c1C#N)CCCC2 | ? | · | ? | · | -2% | 34%[activator] | -25% | -4%
CCOc1ccc(C2C(C(=O)c3ccco3)=C(O)C(=O)N2Cc2cccnc2)cc1 (centres undefined) | -2% | -6.6% | 9%[46.1 µM] | 2% | -4% | 24% | 13% | -2%
CN(C)c1ccc(C(=O)OCC(=O)Nc2cccc(S(=O)(=O)N3CCCC3)c2)cc1 | -28% | · | -19% | · | · | 12% | 20% | -8%
O=C(CCSc1ccc(Cl)cc1)c1cccs1 | -8% | -6.1% | -25% | -4% | -14% | -5% | ? | -1%
O=C(Cc1ccc(Cl)cc1)Nc1ccc(Br)cc1 | -15% | · | 8%[46.1 µM] | · | · | 18% | -2% | 0%
O=S(=O)(CCc1nc2ccccc2[nH]1)c1ccc(Cl)cc1 | 2% | -28% | -9% | -20% | 17% | -6% | -2% | 1%
NC(=O)c1oc2ccccc2c1NC(=O)C1COc2ccccc2O1 (centres undefined) | ? | · | ? | · | 6% | 17% | 1% | 0%
CC1CCCC(NC(=O)CCC(=O)c2ccc(F)cc2)C1C (centres undefined) | · | · | · | · | 10% | -8% | 5% | -2%
CC(=O)NC(CC(=O)NC12CC3CC(CC(C3)C1)C2)c1ccccc1 (centres undefined) | ? | 2.6% | 2% | -2% | 5% | 2% | -7% | 10%
O=[N+]([O-])c1nn(-c2ccc3c(c2)OCCO3)n(O)c1=NCc1ccc(F)cc1Cl | ? | · | 24%[46.1 µM] | · | · | 27% | -18% | 1%
CCCCCCC(=O)c1c(C)[nH]c(C(=O)OCC)c1C | -17% | -9.9% | 7% | ? | -15% | 6% | -12% | -12%
NC(=O)COC(=O)[C@@H]1CC(O)CN1S(=O)(=O)c1ccc2c(c1)OCCO2 (some centres undefined) | -1% | · | 7% | · | -4% | -14% | 4% | 0%
Cc1ccc2nc(-c3ccc(NC(=O)CSc4nccc(=O)[nH]4)cc3)sc2c1 | ? | · | ? | · | -1% | 19% | 0% | 0%
C=CCc1c(C)nc(SC)nc1Nc1ccc(C(C)=O)cc1 | 10% | -12% | -16% | -9% | -117% | 0% | 2% | -18%
